Screening data from PubChem.
Mtb betalactam: beta-lactam sensitization of Mtb H37Rv. M. tuberculosis H37Rv growth with meropenem, percent inhibition; hits of this screen are not shown here. inhibition, % at 25 µM. 330,000 compounds, 0.27% hits. AID 434955;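 active means about 74% or more and at least 40 points above the plate without the antibiotic, then above 30% in a dose series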;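 further: growth measured after seven days incubation then overnight dye step; 0% = bacteria only wells and 100% = bacteria with antibiotic; twin plates without the antibiotic show which effects depend on it; some results filed as inactive read as strong as hits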
The depositor's hits bear a star. These rows are one share of the data; count on the stated rates, not on these rows.

Results for Cc1cc(C)n2nc(SCC(=O)NC(=O)c3ccc(OC(F)F)cc3)nc2n1 ?
Mtb betalactam: -2

Results for CCOc1cc(/C=C/C(=O)OCC(=O)NCC2CCCO2)cc(Cl)c1OC (stereo not given) ?
Mtb betalactam: -5

How did COc1ccc(C2(C)NC(=O)N(CC(=O)NCC(=O)Nc3ccc(F)c(F)c3F)C2=O)cc1OC (stereo not given) do in these assays?
Mtb betalactam: 0

Results for COCCCNc1nc(-c2ccc(Cl)cc2)nc2ccccc12 ?
Mtb betalactam: 77

What do the screens show for `COc1cccc(-c2c(-c3cc(OC)cc(OC)c3)n(C)c3ccc(-c4cccc5[nH]ccc45)cc23)c1`?
Mtb betalactam: 7

How did Cc1ccc(OCCNC(=O)C(C)SCC(=O)Nc2ccc(F)cc2)cc1 (stereo not given) do in these assays?
Mtb betalactam: -3

What do the screens show for `COc1ccc(C(=O)NCC(C)NC(=O)c2ccc(OC)c(Br)c2)cc1Br` (stereo not given)?
Mtb betalactam: -3

Results for CC1CC(C)CN(S(=O)(=O)c2ccc(NC(=O)CCNC(=O)c3ccc([N+](=O)[O-])cc3)cc2)C1 (stereo not given) ?
Mtb betalactam: 0

What do the screens show for `CN(CC(=O)Nc1cccc(F)c1)C(=O)C1CCN(C(=O)c2ccc(Cl)cc2)CC1`?
Mtb betalactam: -1

How did Cn1nnnc1Sc1ncnc2scc(-c3ccc(Cl)cc3)c12 do in these assays?
Mtb betalactam: 63

What do the screens show for `CCc1cccc(C)c1NC(=O)CSc1n[nH]c(N)n1`?
Mtb betalactam: -2

How did CC(NC(=O)COc1ccccc1)C(=O)NCc1ccc(S(N)(=O)=O)cc1 (stereo not given) do in these assays?
Mtb betalactam: -2

Results for CC(=O)c1ccc(OCC(=O)OCc2cc(-c3ccco3)on2)cc1 ?
Mtb betalactam: 0

What do the screens show for `Nc1ccc(C(=O)NCC(=O)O)cc1`?
Mtb betalactam: 3

What do the screens show for `CN(C(=O)Cc1ccc(Cl)c(Cl)c1)C(CN1CCCC1)c1cccc(OCC(=O)O)c1` (stereo not given)?
Mtb betalactam: -1

Reprinted from the part before: 5 entries, followed by the next part.
What do the screens show for `CCc1cccc(C)c1NC(=O)CSc1n[nH]c(N)n1`?
Mtb betalactam: -2

How did CC(NC(=O)COc1ccccc1)C(=O)NCc1ccc(S(N)(=O)=O)cc1 (stereo not given) do in these assays?
Mtb betalactam: -2

Results for CC(=O)c1ccc(OCC(=O)OCc2cc(-c3ccco3)on2)cc1 ?
Mtb betalactam: 0

What do the screens show for `Nc1ccc(C(=O)NCC(=O)O)cc1`?
Mtb betalactam: 3

What do the screens show for `CN(C(=O)Cc1ccc(Cl)c(Cl)c1)C(CN1CCCC1)c1cccc(OCC(=O)O)c1` (stereo not given)?
Mtb betalactam: -1

Results for CC(=O)[C@H]1[C@H]([C@H](O)[C@H](O)CO)O[C@](O)(C(=O)O)C[C@@H]1O ?
Mtb betalactam: -3

Results for CCc1ccc(N2CC(C(=O)OCC(=O)Nc3ccc(C(C)=O)cc3)CC2=O)cc1 (stereo not given) ?
Mtb betalactam: -3

What do the screens show for `Cc1noc(C)c1COc1cccc(C(=O)Nc2ccc(Br)cc2F)c1`?
Mtb betalactam: 7

How did CCOc1ccc(C(=O)NCc2ccc3c(c2)OCO3)cc1OCC do in these assays?
Mtb betalactam: 5

What do the screens show for `CCCN(CC1CC1)C(=O)COC(=O)c1oc2ccc(OCC)cc2c1C`?
Mtb betalactam: 1

What do the screens show for `O=C(CCCOC(=O)c1ccc(O)cc1O)c1ccccc1`?
Mtb betalactam: 1

What do the screens show for `COc1cccc(-c2ncc3ccccc3c2COC(=O)c2cccs2)c1`?
Mtb betalactam: 7

Results for CC1CCc2c(sc(NC(=O)CCc3nc4ccccc4c(=O)[nH]3)c2C#N)C1 (stereo not given) ?
Mtb betalactam: -4

Results for COCCOc1ccc(C(F)(F)F)cc1NC(=O)COC(=O)Cc1c[nH]c2ccccc12 ?
Mtb betalactam: 4

Results for COc1ccc(/C=C/C(=O)OCC(=O)NC2CCCC(C)C2C)cc1 (stereo not given) ?
Mtb betalactam: -5

What do the screens show for `O=C(c1ccc(F)c(S(=O)(=O)N2CCOCC2)c1)N1CCN(c2ccc(F)cc2)CC1`?
Mtb betalactam: -7

What do the screens show for `COc1ccc(C(C(=O)NC2CCCC2)N(Cc2cccnc2)C(=O)Cc2cccs2)cc1OC` (stereo not given)?
Mtb betalactam: 0

Results for COc1ccc(Cl)cc1C(=O)NNC(=O)c1[nH]c(C)c(C(C)=O)c1C ?
Mtb betalactam: -9

Results for COc1cc2cc(CCO)oc(=O)c2cc1OC ?
Mtb betalactam: 4

What do the screens show for `COc1ccc(NC(=O)CSc2nnc(C)n2C2CCCCC2)cc1`?
Mtb betalactam: -6

The list goes on; the last 5 above are carried over.
What do the screens show for `O=C(c1ccc(F)c(S(=O)(=O)N2CCOCC2)c1)N1CCN(c2ccc(F)cc2)CC1`?
Mtb betalactam: -7

What do the screens show for `COc1ccc(C(C(=O)NC2CCCC2)N(Cc2cccnc2)C(=O)Cc2cccs2)cc1OC` (stereo not given)?
Mtb betalactam: 0

Results for COc1ccc(Cl)cc1C(=O)NNC(=O)c1[nH]c(C)c(C(C)=O)c1C ?
Mtb betalactam: -9

Results for COc1cc2cc(CCO)oc(=O)c2cc1OC ?
Mtb betalactam: 4

What do the screens show for `COc1ccc(NC(=O)CSc2nnc(C)n2C2CCCCC2)cc1`?
Mtb betalactam: -6

How did OC[C@H]1O[C@@H](n2cnc3c(NC4CCCC4)nc(Cl)nc32)[C@H](O)[C@@H]1O do in these assays?
Mtb betalactam: -5

Results for Cc1noc(C)c1NC(=O)Nc1ccc2c(c1)C(=O)N([C@H](C)CO)C[C@H](C)[C@@H](CN(C)S(=O)(=O)c1ccc(F)cc1)O2 ?
Mtb betalactam: 2

What do the screens show for `CC(C)(C)OC(=O)N1CCN(C(=O)c2[nH]cnc2C(=O)Nc2ccc(Cl)cc2)CC1`?
Mtb betalactam: 8

What do the screens show for `Cc1ccsc1C(=O)OCC(=O)NCCc1ccccc1`?
Mtb betalactam: -8

How did CCN(c1ccccc1)S(=O)(=O)c1ccc(Cl)c(C(=O)N2CCCC2)c1 do in these assays?
Mtb betalactam: -9

What do the screens show for `O=C(COC(=O)c1ccc(F)c([N+](=O)[O-])c1)NC(=O)NCc1ccccc1`?
Mtb betalactam: 57

Results for Cc1cc(C)n(Cc2cccc(C(=O)N/N=C/c3ccncc3)c2)n1 ?
Mtb betalactam: -12

What do the screens show for `COc1ccccc1NS(=O)(=O)c1ccc(C)c(NC(=O)c2c(C)noc2C)c1`?
Mtb betalactam: 3

What do the screens show for `CNS(=O)(=O)c1ccc(C(=O)NCC(=O)NCCC(c2ccccc2)c2ccccc2)cc1`?
Mtb betalactam: -9

What do the screens show for `CCOc1ccc(N2CC(C(=O)Nc3cc(S(=O)(=O)N4CCCCC4)ccc3C)CC2=O)cc1` (stereo not given)?
Mtb betalactam: -5

Results for COC(=O)C1=C(N)OC2=C(C(=O)CCC2)C1c1ccc2c(c1)OCO2 (stereo not given) ?
Mtb betalactam: 0

Results for CC(=O)c1ccc(S(=O)(=O)N(C)CCCC(=O)N2CCN(c3ncccn3)CC2)cc1 ?
Mtb betalactam: -8

How did O=C(COC(=O)COc1cccc(F)c1)Nc1nc2ccccc2s1 do in these assays?
Mtb betalactam: 2

What do the screens show for `O=C(CSc1nnnn1C1CC1)N1CCN(Cc2ccccc2F)CC1`?
Mtb betalactam: -1

What do the screens show for `CC1(NC(=O)CSc2nnc(-c3c[nH]c4ccccc34)n2C2CC2)CCS(=O)(=O)C1` (stereo not given)?
Mtb betalactam: -6

Results for O=C(CNS(=O)(=O)c1ccccc1)N1CCc2ccccc2C1 ?
Mtb betalactam: -3

Results for O=C(Cc1ccccc1F)N1CCN(S(=O)(=O)c2ccc(Cl)cc2)CC1 ?
Mtb betalactam: -2

What do the screens show for `COc1ccccc1N1CCN(C(=O)CSc2nnc(C)n2C2CC2)CC1`?
Mtb betalactam: 2

How did O=C(Nc1cc(C(F)(F)F)ccc1N1CCOCC1)c1ccncc1 do in these assays?
Mtb betalactam: -6

Results for CC(=O)N1N=C(c2ccc(NS(=O)(=O)c3ccccc3)cc2)CC1c1ccco1 (stereo not given) ?
Mtb betalactam: 1

Results for C=CC[C@@H](CC(=O)OC(C)(C)C)C(=O)OC[C@@H]1CCCN1C(=O)[C@@H](CC=C)CC(=O)N(CCO)Cc1ccccc1 ?
Mtb betalactam: 11

What do the screens show for `Cc1ccc(Cc2c(C)nc3nc(SCC(=O)NCCCN4CCCCC4)nn3c2C)cc1`?
Mtb betalactam: -1

What do the screens show for `COc1ccc(CCC(=O)NNC(=O)c2ccc(F)cc2)cc1`?
Mtb betalactam: -1

How did C[C@H](CO)N1C[C@H](C)[C@H](CN(C)C(=O)Nc2ccc(F)cc2)Oc2c(NC(=O)c3ccc(-c4nccs4)cc3)cccc2C1=O do in these assays?
Mtb betalactam: 8

Results for CCN(c1ccccc1)S(=O)(=O)c1ccc(NN)nc1 ?
Mtb betalactam: 8

Results for C[C@H](CO)N1C[C@H](C)[C@@H](CN(C)S(=O)(=O)c2cn(C)cn2)Oc2ccc(NS(=O)(=O)c3ccccc3)cc2C1=O ?
Mtb betalactam: 1

What do the screens show for `COc1ccc(NC2CCCN(C(=O)CCN3CCCC3=O)C2)cc1` (stereo not given)?
Mtb betalactam: -6

How did Cc1ccc(S(=O)(=O)N2CCCCC2)cc1NC(=O)CCN1C(=O)C2CC=CCC2C1=O (stereo not given) do in these assays?
Mtb betalactam: -1

Results for CCOC(=O)c1c(C)[nH]c(C(=O)OCC(=O)NCc2ccc(C)cc2)c1C ?
Mtb betalactam: -6

Results for CCOc1cc(N2CCOCC2)c(OCC)cc1NC(=O)CSc1ncccc1C(=O)O ?
Mtb betalactam: 7

Results for Cc1ccc(S(=O)(=O)N(C)C[C@@H]2Oc3c(NS(C)(=O)=O)cccc3C(=O)N([C@H](C)CO)C[C@@H]2C)cc1 ?
Mtb betalactam: 1

What do the screens show for `CC(=O)NS(=O)(=O)c1ccc(NC(=O)c2ccc(S(=O)(=O)N3CCCC3)cc2)cc1`?
Mtb betalactam: -4

What do the screens show for `O=C(Nc1cccc(S(=O)(=O)N2CCCCC2)c1)c1ccc(N2CCCC2=O)cc1`?
Mtb betalactam: -4

How did Cc1cc(C)cc(NC(=O)CN2CCN(C(=O)c3cccs3)CC2)c1 do in these assays?
Mtb betalactam: -2

How did NC(=O)COC(=O)c1cc(=O)[nH]c2ccc(S(=O)(=O)Nc3ccc(F)cc3)cc12 do in these assays?
Mtb betalactam: -4

What do the screens show for `O=C(CN1C(=O)C2CCCCC2C1=O)Nc1ccc(OC(F)F)c(Cl)c1` (stereo not given)?
Mtb betalactam: 3

Results for COC(=O)C1=C(c2ccc(F)cc2OCc2ccccc2)C[C@@H]2CC[C@H]1N2C(=O)NCc1ccc(C(C)(C)C)cc1 ?
Mtb betalactam: -11

What do the screens show for `C/C(=N\NS(=O)(=O)c1ccc(Br)cc1)c1ccc(-n2ccnc2)cc1`?
Mtb betalactam: -2

What do the screens show for `N#CCOC(=O)c1cc(S(=O)(=O)N2CCCCC2)ccc1N1CCOCC1`?
Mtb betalactam: -5

How did Cc1cc(C)n(CCCNC(=O)C(C)(C)Oc2ccc(Cl)cc2)n1 do in these assays?
Mtb betalactam: -5

How did O=C(COC(=O)COc1cc(Cl)c(Cl)cc1Cl)NC1CC1 do in these assays?
Mtb betalactam: -3

Results for NC(=S)NN=Cc1ccc(-c2ccc(S(=O)(=O)Nc3ncccn3)cc2)o1 ?
Mtb betalactam: -2

Results for CC(=O)Nc1ccc(C(=O)OCC(=O)Nc2ccc(S(=O)(=O)N3CCOCC3)cc2)cc1 ?
Mtb betalactam: -5

Results for O=C(COC(=O)C1=COCCO1)Nc1ccc([N+](=O)[O-])cc1C(F)(F)F ?
Mtb betalactam: 48

Results for CC(C)n1ncc2c(C(=O)N3CCN(Cc4ccc(Cl)s4)CC3)cc(C3CC3)nc21 ?
Mtb betalactam: 73

Results for COC(=O)C1=C(c2ccc(F)cc2F)C[C@@H]2CC[C@H]1N2C(=O)N1CCC(O)(c2ccc(Cl)cc2)CC1 ?
Mtb betalactam: 11

What do the screens show for `CCC1(CC)NC(=O)N(CC(=O)Nc2cccc3ccccc23)C1=O`?
Mtb betalactam: -2

How did CCN(CC(=O)NCc1cccs1)C(=O)c1cccc(S(=O)(=O)N(C)C)c1 do in these assays?
Mtb betalactam: 1

Results for OCC(Br)CBr (stereo not given) ?
Mtb betalactam: 2

Results for O=C(COC(=O)Cc1ccccc1[N+](=O)[O-])NNC(=O)c1ccc([N+](=O)[O-])cc1 ?
Mtb betalactam: 0

How did O=S(=O)(c1ccc2c(c1)CCCN2)N1CCCC1 do in these assays?
Mtb betalactam: -1

What do the screens show for `CCOC(=O)c1c(C)[nH]c(C(=O)NCC(c2ccco2)N2CCCCC2)c1C` (stereo not given)?
Mtb betalactam: -5

How did CC(C)n1ncc2c(C(=O)NCCOc3ccccc3F)cc(C3CC3)nc21 do in these assays?
Mtb betalactam: 2

Results for CSCCC(NC(=O)c1ccco1)C(=O)OCC(=O)N1c2ccccc2NC(=O)C1(C)C (stereo not given) ?
Mtb betalactam: -2

How did O=C(COC(=O)C1=NN(c2ccccc2)C(=O)CC1)NCc1ccccc1Cl do in these assays?
Mtb betalactam: -3

How did CC(C)(C)OC(=O)C[C@H]1C/C=C\C[C@@H](CC(=O)N(CCO)Cc2ccccc2)C(=O)NC[C@@H](c2ccccc2)OC1=O do in these assays?
Mtb betalactam: -3

Results for COc1ccc(NC(=O)N(C)C[C@H]2Oc3ccc(NS(=O)(=O)c4cccs4)cc3C(=O)N([C@@H](C)CO)C[C@@H]2C)cc1 ?
Mtb betalactam: 6

What do the screens show for `COc1ccc(C(=O)Nc2ccccc2N2CCOCC2)cc1S(=O)(=O)N1CCOCC1`?
Mtb betalactam: -3

How did CN(CC(=O)Nc1ccc(N2CCOCC2)cc1)C(=O)c1cc2c(s1)CCCC2 do in these assays?
Mtb betalactam: 3

What do the screens show for `Fc1ccc2cnc(-c3ccccc3)c(-c3cccc(C(F)(F)F)c3)c2c1`?
Mtb betalactam: 31

Results for Cc1ccccc1CSc1ccc(S(=O)(=O)N2CCCC2)cn1 ?
Mtb betalactam: -2
